# Screening data as filed in PubChem BioAssay.
# H5N1 antiviral: MDCK cell protection from H5N1 avian flu; AID 740, 2007; cytopathic effect, luminescence, 72 h; stronger effect = higher value; no value below 0 was filed and about half of the inactive calls have no number; reference of the scale not given here; 96,000 compounds, 0.07% hits; inhibition, % at 50 µM; in the data active = inhibition above about 25%
# Numbers without * were called inactive; i = inactive. The list is partial; rates above refer to the full screens.
SMILES,H5N1 antiviral
CCn1c(Cc2ccccc2)nnc1SCC(=O)Nc1ccc(N2CCOCC2)c(Cl)c1,0.3
O=C(Nc1cccc(C(F)(F)F)c1)c1cnc2n(c1=O)CCS2,i
CC(C)OC(=O)CSc1nnc2n1C(C)(C)Cc1ccccc1-2,i
CC(C)(CCl)C(=O)Nc1ccc(Sc2ccc(F)cc2)cc1,3.4
Cc1[nH]n2c(=O)cc(Cc3ccccc3)nc2c1C#N,i
COc1cccc(CN=CC2=C(O)CC(C)(C)CC2=O)c1OC,i
O=C(O)c1cn(-c2ccccc2)c(=O)c2ccccc12,0.5
O=C(Nc1nccs1)c1ccc(Cl)c(S(=O)(=O)N2CCOCC2)c1,2.8
CC1(C)Cc2c(sc3nc(-c4cc5ccccc5o4)n(N)c(=O)c23)CO1,2.3
COc1ccc(-c2nc(NC(=O)C3CCN(c4nc5ccccc5o4)CC3)sc2C)cc1,4.3
CCOC(=O)COc1ccc2c3c(c(=O)oc2c1C)CCC3,1.1
O=C1CN(C(=O)c2ccco2)C(c2ccccc2)c2cc(Cl)ccc2N1 (stereo unspecified),i
CN(C)c1ccc(NC(=O)Cn2c(=O)n(Cc3ccccc3)c(=O)c3ccccc32)cc1,i
Cn1c(COc2ccccc2)nnc1SCCSc1nnc(COc2ccccc2)n1C,0.5
CCOC(=O)c1ccc(NC2=CC(=O)C(=O)c3ccccc32)cc1,i
COc1ccc(-n2nnc3c(=O)n(CC(=O)N4CCCC4)cnc32)cc1,i
CCOc1ccc(OCC)c(S(=O)(=O)NCc2ccccn2)c1,0.2
COc1cccc(CNC(=O)C2CCN(S(=O)(=O)c3cccs3)CC2)c1,0.2
CCc1ccc(C(=O)COC(=O)CNC(=O)c2ccco2)cc1,i
O=C(O)c1cc(NCc2ccccc2C(F)(F)F)ccc1N1CCOCC1,i
C/C=C/COC(=O)c1[nH]c2c(c1C)C(=O)CC(c1ccco1)C2 (stereo unspecified),i
Cn1c(=O)[nH]c(=O)c2c1nc1n2CCCN1CCc1ccccc1,2.3
COC(=O)c1cnn2c(C(F)(F)F)cc(-c3ccc(F)cc3)nc12,0.3
CCOC(=O)c1c(O)c2c(n(Cc3ccco3)c1=O)CCCC2,0.9
O=C(c1cccc2ccccc12)N1CCN(c2ccccc2F)CC1,3.9
O=C(CSc1nnc(SCC(=O)c2ccco2)s1)c1ccco1,i
CCn1c(C)cc(=S)c2ccccc21,0.8
O=C1OC2(CCCCC2)OC(=O)C1=CNc1ccc2c(c1)OCO2,i
C=CCn1c(SCCCc2ccccc2)nc2c1c(=O)[nH]c(=O)n2C,1.7
COCCNC(=O)c1ccc(CS(=O)(=O)c2c(Cl)cccc2Cl)o1,1.4
NC(=O)Cn1nnc(-c2ccccc2NC(=O)c2cnccn2)n1,0.6
O=C(NC(c1ccccc1)c1c(O)ccc2ccccc12)c1ccccc1Cl (stereo unspecified),0.2
CCOC(=O)CSc1nc2cccnc2n1-c1ccc(F)cc1,i
C=CCOc1cccc(C2C(C(=O)c3ccc(C)o3)=C(O)C(=O)N2c2nccs2)c1 (stereo unspecified),0.4
Cc1ccc(C2CC(c3ccc(Cl)cc3)=NNC2=O)cc1 (stereo unspecified),i
Cc1ccc(SCc2[nH]nc3c2C2(C(=O)N(C)c4ccccc42)C(C#N)=C(N)O3)cc1 (stereo unspecified),i
COc1ccc(NC(=O)C23CC4CC(C2)CC(n2cnc(Br)n2)(C4)C3)c(OC)c1,i
Oc1c(CN2CCN(c3ccc(F)cc3)CC2)cc(Cl)c2cccnc12,i
COC(=O)c1ccc(/C=N/OCC(=O)NC2CCCCCCC2)cc1,1.3
CN(C)C(=O)c1ccc(NC(=O)c2cncc(Br)c2)cc1,i
Cc1cc(NC(=O)c2c(F)cccc2F)n(-c2nc3ccccc3[nH]2)n1,1.2
COc1ccc(-n2ncc3c(NCc4ccco4)ncnc32)cc1,i
N#CCSc1nc2ccc(N3CCCCC3)cc2c(=O)n1Cc1ccccc1,i
CCCCOC(=O)Cn1c(=N)n(CCN(CC)CC)c2ccccc21,1.1
O=C(Nc1cccc(C(F)(F)F)c1)c1cccnc1N1CCN(CCO)CC1,i
O=C(Cc1c(F)cccc1Cl)N1CCCC1,i
CC1CCCCN1C(=O)C12CCC(C)(/C(=N/O)C1)C2(C)C (stereo unspecified),0.2
Cc1ccccc1N(C(=O)Cc1cccs1)C(C(=O)NCC1CCCO1)c1cccnc1 (stereo unspecified),0.3

# Molecules listed so far that have a COOH group:
SMILES,H5N1 antiviral
O=C(O)c1cn(-c2ccccc2)c(=O)c2ccccc12,0.5
O=C(O)c1cc(NCc2ccccc2C(F)(F)F)ccc1N1CCOCC1,i

# (continued)
SMILES,H5N1 antiviral
CN1C[N+]([O-])=C(c2ccccc2)C1(C)C,0.2
COC(=O)CSc1nnc(-c2ccc(S(=O)(=O)NCc3ccccc3Cl)cc2)o1,1.5
CC(=O)OCCN(CCOC(C)=O)c1c(C)[nH]c(=O)[nH]c1=O,i
CCOC(=O)c1cnn(-c2nc(-c3ccccc3)nc3c2COC(C)(C)C3)c1N,i
CCOC(=O)N1CCC(NC(=O)c2cc(C(=O)Nc3ccc(OCC)cc3)ccc2CO)CC1,0.1
COc1cccc(-c2[nH]nc3c2C(c2ccoc2)C(C#N)=C(N)O3)c1 (stereo unspecified),i
COc1cc(-n2c(=S)[nH]c3ccccc3c2=O)c(Cl)cc1Cl,i
COCC(=O)NCc1nc2ccccc2[nH]1,0.9
CCOCCOCCC(C(=O)O)P(=O)(c1ccccc1)c1ccccc1 (stereo unspecified),i
CC1(C)Cc2nc3sc4c(SCC(=O)NCc5ccccc5)ncnc4c3cc2CO1,0.5
COCCNC(=O)c1onc(CSc2ccccc2F)c1C(=O)O,i
O=C(Cc1c(O)c2ccccc2[nH]c1=O)NCc1cccc(F)c1,i
O=[N+]([O-])c1cc(Br)c(O)c(/C=N/Nc2nnnn2-c2cccc3ccccc23)c1,i
COc1ccc(-n2cnnc2SCC(=O)Nc2cc(C(C)(C)C)nn2-c2ccccc2)cc1,i
CCOc1ccccc1OCC(=O)OCC(=O)Nc1ncc(Cl)cc1Cl,0.7
Cc1[nH]nc2ncc(C(=O)c3cc(F)ccc3O)cc12,0.7
CCCN(CCC)C(=O)CC(c1ccccc1)c1ccc(C)cc1O (stereo unspecified),5.8
Fc1ccc(-n2cnnn2)c(F)c1,0.6
CS(=O)(=O)N(Cc1ccc(C(=O)NC2CCCCC2O)cc1)c1ccccc1 (stereo unspecified),i
C=CCNC(=O)c1onc(CSc2ccccc2)c1C(=O)O,i
c1ccc(Cn2c(-c3cncs3)nc3ccccc32)cc1,i
Cc1ccc(CCNC(=O)CCNS(=O)(=O)c2ccc3c(c2)oc(=O)n3C)cc1,0.1
CCOC(=O)COc1ccc(CCNC(C)=O)cc1,i
COC(=O)c1sccc1-n1cccc1C(=O)C(=O)N1CC(C)OC(C)C1 (stereo unspecified),0.4
CCCOc1ccc(C(=O)CCC(=O)OCC(=O)N2CC(=O)Nc3ccccc32)cc1,i
Cc1nnc(SCC(=O)Nc2ccc(S(=O)(=O)N3CCCCC3)cc2)s1,0.4
CC(NC(=O)c1cccnc1)C(=O)N1CCCCC1 (stereo unspecified),0.1
CCn1c(O)c(C=Nc2ccccc2)n(-c2ccccc2)c1=S,i
c1ccc(CSc2nnnn2-c2cccc3ccccc23)nc1,3.1
CCCCn1nnnc1NCc1ccc(OC)c(OC)c1,1.1
O=C(O)CCc1ccc(-c2cccs2)o1,1.0
CC1=NOC2(C)Nc3ncnn3C(c3ccccc3)C12 (stereo unspecified),i
C=CCN(CC=C)C(=O)CN1C(=O)c2ccccc2C1=O,2.1
COc1cccc(N2C(=O)C(c3ccccc3)=C(c3nc4ccccc4s3)C2NC(C)=O)c1 (stereo unspecified),i
Cc1cccc(C)c1NC(=O)CSc1nnc(NC(=O)CN2CCOCC2)s1,i
CCOC(=O)c1cnn(-c2ccccc2)c1-n1cccc1C(=O)C(=O)Nc1ccccc1C(F)(F)F,74.2*
COC(CNC(=O)Cn1ncc2ccsc2c1=O)OC,i
CCCC(C)C(=O)N(Cc1ccccc1)c1ccccn1 (stereo unspecified),i
O=C(Nc1ccc2c(c1)N(Cc1ccccc1)C(=O)c1ccccc1S2)NC1CC1,0.4
COc1ccc(-c2nnc(SCCC(=O)O)n2C)cc1OC,0.3
O=C(CN1CCC(C(=O)c2ccc3c(c2)OCCO3)CC1)NC1CCCC1,i
CCOC(=O)C1=C(C)N(C)C(=O)C1CC(=O)O (stereo unspecified),i
COc1ccc(OC)c(C(=O)COC(=O)c2ccccc2O)c1,i
O=C(CSc1nc2ccccc2o1)NC(=O)NCc1ccco1,0.2
CC1CCN(CCNC(=O)c2ccc(NC(=O)C3CCCO3)cc2)CC1 (stereo unspecified),i
CNC(=O)OC(C)CNS(=O)(=O)c1ccc(C)cc1 (stereo unspecified),0.6
CC(=O)Nc1ccc2c(c1)C(=O)c1ccccc1C2=O,0.1
O=C(CCC1CCCCC1)NNC(=O)NC12CC3CC(CC(C3)C1)C2,0.3

# Copied from the list:
# O=C(CCC1CCCCC1)NNC(=O)NC12CC3CC(CC(C3)C1)C2 | H5N1 antiviral: 0.3
# CNC(=O)OC(C)CNS(=O)(=O)c1ccc(C)cc1 (stereo unspecified) | H5N1 antiviral: 0.6

# (cont.)
SMILES,H5N1 antiviral
c1ccc(Cn2nnc3c(N4CCC5(CC4)OCCO5)ncnc32)cc1,1.3
CC(C)(C)C(=O)COC(=O)c1ccc(O)cc1,i
O=C(NC1CCCCC1)C1CCN(C(=O)NCc2ccccc2)CC1,i
Cc1ccc(-c2nc3ccc(Cl)cc3n2OC(=O)N(C)C)cc1,i
CC(=O)Nc1ccc(C(=O)OCC(=O)N(Cc2ccccc2)C(C)(C)C)cc1,i
CCCCOC(=O)Nc1ccc(C(N)=O)cc1,i
O=C(Nc1ccc(Cl)cn1)Nc1cccs1,12.1
CCCOc1ccc2c(C)c(CC(=O)OC)c(=O)oc2c1,0.5
O=C(CCCc1nc(-c2ccccc2)no1)N1CCOCC1,i
O=C1COc2ccc(C(=O)c3ccccc3C(=O)NCc3ccccc3)cc2N1,i
COC(=O)c1nn(-c2ccccc2)c(Sc2ccc(Br)cc2)c1/C=N/O,1.8
CC(C)NC(=O)C1CC(=O)N(c2ccc(F)c(Cl)c2)C1 (stereo unspecified),i
O=C1CCCC/C1=C\Nc1ccc(O)cc1,0.4
Cc1cccc(OCC(=O)OCC(=O)c2c(N)n(C)c(=O)n(C)c2=O)c1C,1.9
COC(=O)COc1ccc(C2NC(=O)NC(c3ccccc3)=C2C(C)=O)cc1OC (stereo unspecified),0.6
CC(=O)c1cccc(NC(=O)CCOc2ccccc2)c1,i
CCNc1cc(Cl)nc(SC)n1,i
CSc1nc2c(c(=O)[nH]1)C(c1ccncc1)C(C(=O)OC(C)C)=C(C)N2 (stereo unspecified),0.6
COc1ccc(N/C=C2\CCOC2=O)cc1,i
Cn1cnnc1SCC(=O)NCc1cccc(C(F)(F)F)c1,2.0
COC(=O)c1cn(CCOc2ccccc2F)c2ccccc12,0.4
O=C(Cc1c(C(=O)O)[nH]c2ccccc12)Nc1ccc2c(c1)OCO2,i
O=C(Nc1nc(NC(=O)c2ccco2)n(-c2ccccc2)n1)c1ccccc1,i
Cc1cc2c(c(N)n1)c(=O)oc1ccccc12,i
O=C(c1ccc(NS(=O)(=O)c2ccccc2)cc1)N1CCCC1,i
COCCCNC(=O)c1ccc(N(C)S(=O)(=O)c2ccc(OC)cc2)cc1,0.3
CC(C)CCNc1cc(=O)n(C)c(=O)n1C,1.0
COC(=O)c1cc(C(=O)OC)cc(N2C(=O)CN=C2Nc2nc(C)cc(C)n2)c1,0.2
C=CCSc1nnc(NC(=O)c2ccc(S(=O)(=O)NCC3CCCO3)cc2)s1 (stereo unspecified),i
COC(=O)C1=C(C(=O)OC)SC(=C2C(=S)C(C)(C)N(C(=O)CC(C)C)c3ccccc32)S1,4.0
COCCN1C(=O)C(O)=C(C(=O)c2ccco2)C1c1cccc(Oc2ccccc2)c1 (stereo unspecified),0.1
CCCc1cc2c(=O)c(-c3ccccn3)coc2cc1OC,i
Cc1c(C(c2ccc([N+](=O)[O-])cc2)c2c(C)n(C)n(-c3ccccc3)c2=O)c(=O)n(-c2ccccc2)n1C,0.4
O=C(NC1CCCCCC1)C1CCCN(S(=O)(=O)c2cnc[nH]2)C1 (stereo unspecified),0.6
O=C(NCc1ccc2c(c1)OCO2)C1CCC(CNS(=O)(=O)c2ccccc2)CC1 (stereo unspecified),i
CCOC(=O)CC(NC(=O)c1ccco1)c1ccc(OC)cc1 (stereo unspecified),i

# Entries above with a nitro group on carbon, in the order listed:
SMILES,H5N1 antiviral
O=[N+]([O-])c1cc(Br)c(O)c(/C=N/Nc2nnnn2-c2cccc3ccccc23)c1,i
Cc1c(C(c2ccc([N+](=O)[O-])cc2)c2c(C)n(C)n(-c3ccccc3)c2=O)c(=O)n(-c2ccccc2)n1C,0.4

# (further entries)
SMILES,H5N1 antiviral
Cc1cc(C)n2nc(SCC3COc4ccccc4O3)nc2n1 (stereo unspecified),i
N=c1sccn1CC(=O)Nc1cc(Cl)ccc1Oc1ccccc1,i
CN1/C(=C\C=Nc2ccccc2)C(C)(C)c2ccccc21,1.8
Cc1ccc(CSc2nnc(CC(=O)Nc3ccc(C)cc3)n2C)cc1,0.8
CCOC(=O)c1[nH]c(=O)c2ccccc2c1O,i

# Given as labelled records: four of the compounds above.
CCOC(=O)c1cnn(-c2ccccc2)c1-n1cccc1C(=O)C(=O)Nc1ccccc1C(F)(F)F
  H5N1 antiviral: 74.2*
COC(CNC(=O)Cn1ncc2ccsc2c1=O)OC
  H5N1 antiviral: i
CCCC(C)C(=O)N(Cc1ccccc1)c1ccccn1 (stereo unspecified)
  H5N1 antiviral: i
O=C(Nc1ccc2c(c1)N(Cc1ccccc1)C(=O)c1ccccc1S2)NC1CC1
  H5N1 antiviral: 0.4
